RN4220 kill – S. aureus RN4220 growth inhibition | 0.33% of 330,000 active | AID 1259311 | inhibition, % (no concentration beside the values) | OD600, 16 h;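 active = z-score of -3 or lower and OD600 up to 0.18 on both plates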;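 also: plate controls were untreated cells for no effect and reference antibiotic for full effect; stock transfer was 100 nL into about 80 µL; one replicate is shown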
PrP 5UTR inh – suppresses PrP 5' UTR mRNA reporter expression. cell-based PrP 5' UTR mRNA reporter, plate reader. inhibition, % (no concentration beside the values). 0.35% of 340,000 active. AID 488862;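 active = every replicate at 50% or more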;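 also: 0 = median of the neutral control wells; tested in H4 reporter cells; numbers are from one replicate; inactives centre near -14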
BJeLR viability – kills HRASV12-expressing BJeLR cells; 0.17% of 300,000 active; inhibition, % (concentration not given with the values); AID 1554; BJeLR (HRASV12) viability, CellTiter-Glo ATP luminescence, 48 h; reference of the scale not given here;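 active = replicate mean above 50%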;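 also: 50 nL library stock added to about 25 µL; numbers are from one replicate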
Mtb hypoxia rep – Mtb hypoxia fluorescent reporter inhibition; M. tuberculosis hypoxia-regulated fluorescent reporter, fluorescence; 0.1% of 300,000 active; fluorescence inhibition, % (concentration not given with the values);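 active = 35 to 45% if threefold the growth effect, above 45% if 1.5-fold the growth effect; inactive = the rest, general growth blockers included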;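 also: wells of about 50 µL received 100 nL stock; 0% = vehicle wells and 100% = reference inhibitor wells; whole bacteria with a GFP reporter of the hypoxia response; strong numbers were not always called active; many hits fall short of the cut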
ugtP null kill – growth inhibition of S. aureus ugtP deletion strain; growth inhibition, % (no concentration beside the values); AID 1259309; 0.54% of 330,000 active; S. aureus RN4220 ugtP deletion, OD600 growth, 16 h; some inactives read as strong as hits;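 active = z-score under -3 and OD600 up to 0.15 on both plates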;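 also: plate controls were untreated wells for no effect and antibiotic for full effect; wells of about 80 µL received 100 nL stock; the first replicate is given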
Autofluor counter – flagged as autofluorescent in microsphere protease counterscreen; 3.1% of 360,000 active; AID 624483; compound autofluorescence counterscreen, microsphere flow cytometry; stronger effect = higher value; fluorescence intensity (no concentration beside the values);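 active = at least 3 SD above the mean of all compounds, about 16000 in these data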;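 also: 100 nL of 1 mM stock went into each well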
Mtb hypoxia rep growth – further read-out of Mtb hypoxia rep, marked with its call; growth inhibition, %; measured here: M. tuberculosis growth (absorbance);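 0% = vehicle and 100% = reference antibiotic; read after six days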
The depositor's hits bear a star; . = not tested or not shown.

Values run as follows: RN4220 kill	PrP 5UTR inh	BJeLR viability	Mtb hypoxia rep	Mtb hypoxia rep growth	ugtP null kill	Autofluor counter
CCN1C[C@@H]2[C@@H]3C(=O)N(Cc4ccccc4)C(=O)[C@@H]3[C@](C)(C(=O)OC)N2C1=NC1CCCCC1
  1.7	-13	.	-5	-2	4	3084
c1ccc(-c2nc(NCc3cccs3)c3ccccc3n2)cc1
  -14	-6	-5	1	-2	-5	3945
CN(C)Cc1c(C(=O)NN=CC2CC=CCC2)nnn1-c1nonc1N (configuration not stated)
  3.0	.	.	6	5	5	.
C=C(Br)CN1CCN(CC(=C)Br)CC1
  6.3	-14	14	3	2	5	3284
O=C1Nc2ccccc2C1Cc1nc2ccccc2c(=O)n1-c1ccccc1 (configuration not stated)
  4.0	-141	8	9	2	5	4882
CCNc1nc(SC(C(C)=O)C(C)=O)nc(N(C)C)n1
  -14	0	8	9	-7	-4	3273
O=C(NCCc1ccccc1)C1CCN(S(=O)(=O)c2ccccc2)CC1
  4.9	-27	-5	16	8	6	11203
CC(=O)c1cccc(NC(=O)CSc2nnnn2C2CCCC2)c1
  4.0	-19	-24	-10	2	3	3142
COCCCn1c(=O)c2ccccc2c2ccccc2c1=O
  0.9	-2	-3	.	.	5	3964
O=C(Cc1ccc(Br)cc1)OCC(=O)N1CCOCC1
  2.2	-16	.	-5	5	2	3507
CCOc1ccccc1NC(=O)C(c1ccccc1)N1CCN(CC(=O)N2CCOCC2)CC1 (configuration not stated)
  3.6	-8	.	0	3	1	8020
CC(=O)N1CC(=O)Nc2ccc(Br)cc2C1c1ccc(F)cc1 (configuration not stated)
  2.2	-6	-7	-3	-13	10	2823
COC(=O)C1=C(C)NC(=O)NC1c1ccc(OC(=O)c2ccco2)cc1 (configuration not stated)
  2.8	-13	3	-2	7	1	3253
Cc1ccc(C(=O)O)cc1-c1ccc(/C=C2/NC(=O)N(c3ccccc3)C2=O)o1
  .	-12	-13	.	.	.	23411*
Cc1ccc(NS(=O)(=O)c2ccc(C(=O)OCC(=O)Nc3cc(C)on3)cc2)cc1
  0.9	-13	-2	2	2	10	4934
COc1ccc(C)cc1NC(=O)CN1C(=O)COc2ccc(S(=O)(=O)N3CCCCCC3)cc21
  2.5	-26	10	12	9	-4	5521
CCOC(=O)C(=O)N1CCC(Cc2ccccc2)CC1
  9.1	-17	-2	14	4	-4	2252
CCCCN(CCNP(=O)(OCC)OCC)CP(=O)(OCC)OCC
  -1.7	-23	-5	.	.	-3	4263
O=C(Cn1nc(-c2ccccc2)ccc1=O)NCCCN1CCOCC1
  -0.1	-21	8	4	2	4	5185
O=S(=O)(Cc1ccccc1)Nc1ccccc1Br
  6.3	-1	-8	19	4	-4	4189
CCC(CC)c1nnc(NC(=O)C2CC(=O)N(C3CCCC3)C2)s1 (configuration not stated)
  -1.1	-14	-5	-3	8	14	5789
O=C(Nc1ccccc1)N1CCSc2ccccc21
  2.8	-16	-6	-2	-4	-3	2541
COCCN(C(=S)Nc1cccc(OC)c1)C1CCN(C(C)C)CC1
  1.8	-16	-1	4	7	1	2503
Cc1cc(NS(=O)(=O)c2ccccc2)no1
  -5.0	-23	3	-4	-7	-6	5681
O=C(O)/C=C/C(=O)Nc1ccc(C(=O)c2ccccc2)cc1
  3.9	-5	2	19	9	3	4682
CC1(C)NC(=O)[C@H]2CCCN21
  .	-22	5	.	.	.	3739
Cc1ccc(NC(=O)CNC(=O)c2ccc(OC(F)F)cc2)cc1S(=O)(=O)N1CCCCCC1
  0.8	-7	.	9	36	-10	3832
CC(C)CN(C(=O)COC(=O)c1ccc(Br)cc1)c1c(N)n(Cc2ccccc2)c(=O)[nH]c1=O
  4.7	-18	-1	-8	-4	8	4454
Oc1c(CN2CCOCC2)ccc2ccccc12
  9.5	8	-5	2	10	-3	5267
Cc1cc(C)cc(-n2ncc3c2CCCC3NC(=O)C2(C(N)=O)CC2)c1 (configuration not stated)
  6.2	-8	4	-4	0	11	6377

(listing goes on)
SMILES	RN4220 kill	PrP 5UTR inh	BJeLR viability	Mtb hypoxia rep	Mtb hypoxia rep growth	ugtP null kill	Autofluor counter
CC1Cc2ccccc2N1C(=O)C1CCCCN1S(=O)(=O)c1ccccc1 (configuration not stated)	2.2	-7	1	4	5	-6	15934
O=C(OCc1c(-c2ccccc2)ncc2ccccc12)c1ccc(Cl)cc1Cl	-0.4	-16	.	9	3	-4	3050
CCc1ccc2[nH]c(=O)c(CN(CCN(CC)CC)C(=O)Nc3ccccc3OC)cc2c1	-19	-26	9	.	.	0	3211
C=CCn1c(SCC(=O)Nc2sccc2C(N)=O)nc2sc(CC)cc2c1=O	.	-8	2	.	.	.	3564
Cc1cc(C)nc(N=C(N)C2=C(O)CC(C)(C)CC2=O)n1	6.2	.	.	9	10	-2	.
CN(/N=C/c1ccncc1)c1cnc2ccccc2n1	.	-116	0	.	.	.	3277
CC(C)C(=O)COc1c2occc2cc2ccc(=O)oc12	1.1	-1	.	.	.	1	5559
CC(C)CCN1CCN(Cc2cc(F)ccc2-n2cccn2)CC1CCO (configuration not stated)	6.0	-36	6	2	8	1	3338
Cc1ccc(-n2c(O)c(C=NCCN3CCNCC3)c(=O)[nH]c2=S)cc1	2.5	-9	-11	0	-7	5	3890
COc1ccccc1NC(=O)c1c(C)cc(=O)oc1C	3.8	-12	-2	-2	7	1	9091
O=C(Cn1ccccc1=S)c1ccc(Cl)c(Cl)c1	2.4	.	12	4	-11	-2	5791
c1ccc(-c2noc(-c3ccco3)n2)nc1	4.1	-15	3	5	7	10	4710
COc1ccc(-n2c(Cc3cccn3C)nnc2SCC(=O)NCCc2ccccc2)cc1	3.8	-2	0	-1	4	3	8397
COC(=O)c1cc(=O)n(Cc2ccc(F)cc2)c(=NCc2ccc(F)cc2)s1	5.5	-12	1	5	-4	9	2505
O=[N+]([O-])c1ccc(NC2CCN(Cc3ccccc3)CC2)c2ccncc12	3.3	-5	-2	12	5	12	5331
O=C(Cc1ccc(NC(=O)C2CCCN(C(=O)C3CCCC3)C2)cc1)Nc1cccc(C(=O)N2CCCC2)c1 (configuration not stated)	2.3	-30	.	-2	2	0	3749
COc1ccc(C2C=CCN(C(=O)OCc3ccccc3)CC(=O)N2Cc2ccc(F)cc2)cc1 (configuration not stated)	11	.	.	21	13	10	.
Cn1cc(C(=O)N2CCCCC2)c(=O)c2cc(S(=O)(=O)N3CCCC3)ccc21	2.5	-23	-5	16	3	5	5724
CC(C)n1nnnc1SCC(=O)NCc1ccco1	3.7	-16	-9	4	0	4	3178
CCN(C(=O)CSc1nc2ccccc2c(=O)n1CCOC)C1CCS(=O)(=O)C1 (configuration not stated)	-3.4	-12	-5	-9	6	1	3850

Compounds from the list above containing a COOH group:
SMILES	RN4220 kill	PrP 5UTR inh	BJeLR viability	Mtb hypoxia rep	Mtb hypoxia rep growth	ugtP null kill	Autofluor counter
Cc1ccc(C(=O)O)cc1-c1ccc(/C=C2/NC(=O)N(c3ccccc3)C2=O)o1	.	-12	-13	.	.	.	23411*
O=C(O)/C=C/C(=O)Nc1ccc(C(=O)c2ccccc2)cc1	3.9	-5	2	19	9	3	4682

One compound at a time (already shown). Values in the order: RN4220 kill | PrP 5UTR inh | BJeLR viability | Mtb hypoxia rep | Mtb hypoxia rep growth | ugtP null kill | Autofluor counter
`O=[N+]([O-])c1ccc(NC2CCN(Cc3ccccc3)CC2)c2ccncc12` is listed with 3.3 | -5 | -2 | 12 | 5 | 12 | 5331
`COC(=O)c1cc(=O)n(Cc2ccc(F)cc2)c(=NCc2ccc(F)cc2)s1` is listed with 5.5 | -12 | 1 | 5 | -4 | 9 | 2505
`c1ccc(-c2noc(-c3ccco3)n2)nc1` is listed with 4.1 | -15 | 3 | 5 | 7 | 10 | 4710

The results go on.
SMILES	RN4220 kill	PrP 5UTR inh	BJeLR viability	Mtb hypoxia rep	Mtb hypoxia rep growth	ugtP null kill	Autofluor counter
C/C(=N\NS(=O)(=O)c1ccc(C)c([N+](=O)[O-])c1)c1cccs1	.	-11	15	.	.	.	2593
O=C(CSc1nc2[nH]ncc2c(=O)[nH]1)NCc1ccc(F)cc1	6.1	9	-6	8	-2	0	7219
CCOCCCN(C(=O)Cn1nnc(-c2ccc(OC)c(OC)c2)n1)C(C(=O)NCC1CCCO1)c1ccc(F)cc1 (configuration not stated)	0.0	-3	-1	4	20	1	3523
CC(=O)NCCNc1nc2c(-c3cccc(C)c3)nnn2c2ccccc12	0.5	0	5	-6	-4	2	5290
Cc1ccc(C(=O)NNC(=O)c2ccc3ncccc3c2)cc1	2.7	-5	24	-2	-7	2	4136
COc1ccc(C(=O)NC(=S)N2CCN(c3ccccc3OC)CC2)cc1	1.9	-6	-6	-6	-1	-10	4550
O=C(CN(c1cccc(Cl)c1)S(=O)(=O)c1ccccc1)NN=C1CCCC1	1.3	-17	-2	7	3	5	2095
CC(C)NC(=O)C(=O)N/N=C/c1ccco1	.	-4	-2	.	.	.	11485
O=C(Nc1ccc(O)c2c(=O)cc(-c3cccc(Cl)c3)oc12)c1cccc(Cl)c1	9.1	-20	10	5	-2	12	4143
O=C(OCc1ccccc1C(F)(F)F)c1cc([N+](=O)[O-])ccc1N1CCOCC1	0.5	3	6	7	-5	4	4293
COc1ccc(NC(=O)c2cccc3c2C(=O)c2ccc(-c4cnc(OC)nc4)cc2S3(=O)=O)cc1	-2.3	-11	.	6	5	6	2655
NC(=O)NC(=O)COC(=O)CCCCCNS(=O)(=O)c1ccc2c(c1)OCCO2	3.4	16	18	3	14	11	6356
CCOC(=O)N1CCN(C(=O)c2ccc3nc4ccc(Cl)cc4c(=O)n3c2)CC1	1.9	.	16	8	8	4	9409
COc1ccc(CCNC(=O)c2cc(-c3cc(Cl)cc(Cl)c3)oc2C)cc1	1.4	-9	-7	7	3	13	21204*
CCOC(=O)c1c(-c2ccc(C)o2)csc1NC(=O)CN1CCOCC1	2.4	-4	0	6	12	-7	4364
COCc1cc(OC(=O)N(C)C)nc(-c2ccc(C)c(Cl)c2)n1	3.8	-10	6	13	5	13	3435
O=[N+]([O-])c1cc(Br)c(O)c(C=NNc2nnnn2-c2cccc3ccccc23)c1	30	.	.	4	7	17	.
C/C(=C\C(=O)O)C12CC3CC(CC(C3)C1)C2	8.8	-21	7	.	.	-4	3932
Cc1noc(/C=C/N(C)C)c1S(=O)(=O)N1CCC(C(=O)Nc2ccc(Cl)cc2)CC1	0.0	-17	-4	-13	-15	-10	4984

Source: PubChem BioAssay
